Bioassay records as filed in PubChem.
UCH37 DUB inh: inhibitors of human deubiquitinating enzyme UCH37; Q9Y5K5; purified proteasome/UCH37, Ub-AMC cleavage fluorescence; inhibition, % (no concentration beside the values); hit rate 0.33% among 330,000;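 active means mean of two replicates above 20%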;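 further: 0% = compound-free wells with enzyme and 100% = wells lacking proteasome; stock transfer was 100 nL into about 20 µL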
Target sequence (Q9Y5K5 whole entry, looked up): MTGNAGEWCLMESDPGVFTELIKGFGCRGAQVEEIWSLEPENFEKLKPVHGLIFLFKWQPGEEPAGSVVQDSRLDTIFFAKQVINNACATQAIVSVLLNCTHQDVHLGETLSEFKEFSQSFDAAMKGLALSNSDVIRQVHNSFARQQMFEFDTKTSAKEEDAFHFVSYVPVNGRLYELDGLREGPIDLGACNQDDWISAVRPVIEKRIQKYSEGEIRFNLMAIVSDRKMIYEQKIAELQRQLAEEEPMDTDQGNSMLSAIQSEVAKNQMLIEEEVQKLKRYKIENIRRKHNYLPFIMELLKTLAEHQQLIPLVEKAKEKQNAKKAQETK
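Schedule: 30 min plus 25 min, room temperature / Material: human UCH37 within purified proteasomes / Technique: AMC fluorescence intensity at 355/460 nm / Buffer or medium: pH 7.4 Tris-HCl (50 mM) with ovalbumin, ATP-MgCl2, DTT / Controls: wells without proteasome as full block, compound-free enzyme plus substrate as uninhibited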
LANA-H2B inh: blocks KSHV LANA binding to histone H2A/H2B; cell-free LANA-H2A/H2B peptide, fluorescence polarization; inhibition, % (test concentration not listed); hit rate 0.6% among 320,000; AID 2629; in the data active means inhibition mostly above about 10%, no sharp cut-off; inactive means mostly below about 6.7%;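 further: stock transfer was 7.5 nL into about 10 µL; 0% = median of vehicle wells and 100% = median of positive control wells; one replicate is shown; the record names a cut of 25% in any replicate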
B2AR ag: human beta-2 adrenergic receptor agonism by FAP | hit rate 0.43% among 340,000 | Am2.2-beta2AR cells, FAP receptor internalization, flow cytometry; reference of the scale not given here | P07550 | response, % (concentration not given with the values);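 active means response above a set limit, near 3 SD of response in nonfluorescent compounds, cut at about 42% in these data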;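 further: stock transfer was 100 nL into about 11 µL; a reference agonist was the positive control; negative values mostly stem from fluorescent compounds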
Target sequence (P07550 whole entry, looked up): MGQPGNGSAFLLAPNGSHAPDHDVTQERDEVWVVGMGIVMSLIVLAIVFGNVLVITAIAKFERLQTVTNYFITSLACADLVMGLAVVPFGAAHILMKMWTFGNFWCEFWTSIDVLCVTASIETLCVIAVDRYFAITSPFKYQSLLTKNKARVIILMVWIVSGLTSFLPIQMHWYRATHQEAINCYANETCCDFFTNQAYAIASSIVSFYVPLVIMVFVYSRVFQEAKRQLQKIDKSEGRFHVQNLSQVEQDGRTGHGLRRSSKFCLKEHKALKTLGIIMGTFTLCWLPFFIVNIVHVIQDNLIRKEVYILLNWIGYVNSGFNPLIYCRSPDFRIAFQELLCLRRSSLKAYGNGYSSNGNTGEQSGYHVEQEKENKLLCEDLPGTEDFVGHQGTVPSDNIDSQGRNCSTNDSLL
HNF4A DNA FP: change in binding of human HNF4 alpha to DNA | P41235 | HNF4a-FITC DNA binding, fluorescence polarization, 1 h | activity change, % at 10 µM | hit rate 0.3% among 360,000; in the data active means activity change above about 30%, passing the limit was not always enough;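 further: controls were the assay level and a saturating level of protein; the project sought stronger binding though the title names inhibitors; some compounds called inactive have numbers as strong as hits; positive values seem to mean higher polarization but the record does not say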
E coli growth: inhibitors of Escherichia coli growth; OD600, 23 h; stronger effect = lower value; AID 1053175; OD600 absorbance (test concentration not listed); hit rate 0.21% among 330,000;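 active means OD600 absorbance below the run mean of sample wells minus 3.6 SD, in any replicate, cut at about 0.56 in these data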;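 further: stock transfer was 300 nL into about 60 µL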
Vif TR-FRET: HIV-1 Vif–A3G interaction blockers – biochemical, TR-FRET, GST-Vif 1-94, biotin-A3G peptide, dose response retest, primary screen (AID 1117319); TR-FRET GST-Vif / biotin-A3G peptide binding; higher % means a stronger effect; test concentration not given here; strong numbers were not always called active; inhibition, %, or IC50 in µM where a hit was titrated; hit rate 0.57% among 260,000;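 active means above the screen mean plus three standard deviations and confirmed in dose response; inconclusive means results disagree or hit not tested in dose response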;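 further: Vif residues 1-94 fused to GST binding biotinylated APOBEC3G peptide 110-148; 0% = full assay without inhibitor and 100% = GST in place of GST-Vif; retest series ran down from 100 µM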
Bfl-1 A1 inh: inhibitors of the anti-apoptotic protein A1, read as caspase activation | MEF A1-2A-BIM cells, Caspase-Glo 3/7 luminescence, 3 h; percent of clofoctol response, vehicle zero | caspase activation, % (no concentration beside the values) | hit rate 0.066% among 330,000 | AID 2462;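 active means over half of replicate activation scores above 10%, or exactly half above 10 with the replicate mean above 10; inconclusive means replicate mean below 10 yet half the replicates above 10; inactive means over half of replicates below 10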;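 further: wells of about 30 µL received 50 nL stock; many hits fall short of the cut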
* hit, by the source's call; ? = inconclusive; / = no result given.

smiles,UCH37 DUB inh,LANA-H2B inh,B2AR ag,HNF4A DNA FP,E coli growth,Vif TR-FRET,Bfl-1 A1 inh
CCCCC(CC)C(=O)Nc1cc(=O)[nH]c2nc3ccccc3n12 (stereo unspecified),3.3,0.4,3,1.1,0.65,-7%,?
Cc1ccc(C(=O)OCC(=O)NCc2ccc3c(c2)OCO3)cc1S(=O)(=O)N1CCOCC1,1.1,-13,0,2.7,0.68,/,-1.9
C[C@H](CO)N1C[C@H](C)[C@@H](CN(C)Cc2ccncc2)Oc2c(NC(=O)CCCCCC(=O)Nc3ccccc3N)cccc2C1=O,4.8,-5.8,-2,2.0,/,/,0.0
Cc1oc2c(C)c3oc(=O)c(CCC(=O)O)c(C)c3cc2c1-c1ccccc1,-13,3.7,17,0.3,0.63,-6%,2.5
N/C(=N\OC(=O)COc1ccc(Cl)cc1)c1ccc(Cl)cc1,2.1,-0.5,6,-0.5,0.7,/,-1.1
CCCN(CC(=O)Nc1ccccc1OC)C(=O)c1ccc(S(=O)(=O)NCc2ccco2)cc1,0.4,2.7,8,0.5,0.64,5%,-0.6
CC(=O)c1ccc(N2CCN(S(=O)(=O)c3c(C)[nH]c(C)c3C(=O)N3CCCC3)CC2)cc1,3.4,-7.1,-9,0.0,0.65,/,0.6
CCCN(CCC)CCCNC(=O)c1cc2cc3ccc(Cl)cc3nc2o1,-43,1.0,3,-5.4,0.68,-15%,-0.8
COc1ccc(CCC(C)NCc2cc(OC)cc(OC)c2)cc1 (stereo unspecified),3.1,1.5,-3,16,0.7,/,0.8
CC1(C)O[C@@H]2C[C@H]3[C@@H]4CCC5=CC(=O)CC[C@]5(C)[C@@]4(F)[C@@H](O)C[C@]3(C)[C@]2(C(=O)CCl)O1,3.4,-6.4,3,-2.2,/,/,1.2
CCC(C)Sc1nc2c(c(=O)[nH]c(=O)n2C)n1CC(O)COc1ccccc1C (stereo unspecified),4.8,6.9,-7,0.7,0.66,9%,0.2
OC[C@H]1O[C@H](OCc2ccccc2)[C@H](O[C@@H]2OC[C@@H](O)[C@H](O)[C@H]2O)[C@@H](O)[C@@H]1O,1.2,-8.0,-1,-1.5,0.69,/,0.5
Cc1c(C(c2cccc(Br)c2)c2c(C)n(C)n(-c3ccccc3)c2=O)c(=O)n(-c2ccccc2)n1C,1.7,-0.6,-10,1.7,0.71,/,0.8
CN(/N=C/c1cccnc1)c1cnc2ccccc2n1,/,0.0,-7,3.6,/,-4%,-0.6
CN1C(=O)[C@H]2[C@@H](C3CC3)N3C(=O)CN(Cc4ccccc4)C(=O)[C@@]3(C)[C@H]2C1=O,3.1,1.2,-1,0.4,/,/,-1.1
CC1CCCCC1NC(=O)c1cc(S(=O)(=O)N2CCOCC2)ccc1Cl (stereo unspecified),2.0,-0.8,1,2.8,0.65,6%,-1.0
Cc1ccc(S(=O)(=O)OCCC2=CC(=O)CCN2Cc2ccccc2)cc1,-0.7,2.7,-11,0.4,0.66,/,-0.9
CC1=CC=CC2=N/C(=N\S(=O)(=O)c3ccc(F)cc3F)c3ccccc3CN12,/,1.6,-4,0.5,/,-4%,-0.2
N#Cc1cc(S(=O)(=O)N2CCOCC2)ccc1N1CCOCC1,-11,0.9,6,1.5,0.66,/,-0.6
COc1ccc(N=[N+]([O-])c2ccc(OC)cc2)cc1,5.3,/,5,0.4,0.71,-3%,/
CCN(CC(=O)Nc1c(F)cccc1F)C(=O)CSc1nc(C)cc(C)n1,0.7,2.9,-2,-3.0,0.7,/,0.2
CC(=O)NC1(C(F)(F)F)NC(=O)N(CCc2ccccc2)C1=O (stereo unspecified),5.7,-0.8,-4,-0.1,0.67,0%,?
Cc1nc(C)c(-c2csc(Nc3ccc(S(N)(=O)=O)cc3)n2)s1,3.6,2.4,19,2.2,0.66,/,1.3
CCOC(=O)/C(=N\Nc1ccccc1Cl)N1CCN(C)CC1,/,3.0,0,-0.1,/,2%,0.9
CC(C)(O)C#Cc1ccc(CN2CCCC(CNC(=O)c3ccco3)C2)cc1 (stereo unspecified),-1.5,1.5,-8,-2.4,0.7,14%,-0.2
COc1ccc(-c2nc(CN3CCCCC3c3cccnc3)c(C)o2)c(F)c1 (stereo unspecified),0.6,-14,11,2.2,0.63,3%,-0.3
COc1cc(C)c(NC(=O)COc2ccc3c(c2)CCC3)cc1OC,0.8,0.2,-1,-2.0,0.72,/,-0.2
Cc1cc(C)cc(NC(=O)CN2CCN(c3ccccc3)CC2)c1,3.7,-2.2,-10,-3.2,0.67,0%,-0.9
Cc1ccccc1OCC(=O)Nc1ccccc1NC(=O)c1ccco1,3.3,9.0,-1,1.3,0.65,/,-0.6
CCN1C(c2ccccc2)=C(c2ccccc2)S/C1=C\C=C1/SC(=S)N(C)C1=O,5.6,0.3,-15,30,0.7,/,-1.1
C(=NOCc1ccccc1)c1ccncc1,3.4,/,-1,-3.2,0.66,11%,/
O=C(NNC(=O)c1ccccc1-c1ccccc1C(=O)O)c1ccccc1,2.9,-0.1,3,-1.7,0.69,/,0.6
Cc1[nH]c(-c2ccc3c(c2)OCO3)nc1C(=O)O,2.4,-1.1,-2,2.1,0.71,19%,-5.8
O=C(CSc1nnc(-c2cccnc2)n1Cc1ccccc1)NCc1ccco1,0.5,-5.0,11,0.0,0.72,9%,0.7
CCN1C(=O)C(CC(=O)Nc2ccc(F)cc2)N(CCc2ccc(OC)cc2)C1=S (stereo unspecified),/,-0.3,-1,1.1,/,1%,0.5
CCOC(=O)C1C(c2ccc(OC)cc2)N(C)OC1(O)C(F)(F)F (stereo unspecified),3.1,-3.2,3,0.8,0.71,/,0.9
CC(C)(C)Nc1cccccc1=O,4.2,1.3,2,8.8,0.69,13%,-0.3
COCCCN(C(C)=O)c1nc(-c2ccc(OC)cc2)cs1,0.9,-0.7,3,-2.4,0.7,3%,-0.1
CC(C)Cn1c(N)c(C(=O)CSc2nc3ncc(Cl)cc3[nH]2)c(=O)n(C)c1=O,-0.1,1.6,7,6.0,0.69,-16%,0.8
O=C1[C@@H]2CSCN2C(=O)CN1Cc1ccc(F)cc1,3.0,-1.4,-6,0.4,0.67,?,0.0
COc1cc(CN2CCN(c3ncccn3)CC2)cc(OC)c1,0.4,-13,6,3.0,0.64,/,0.6
COc1ccc(/C=N/NC(=O)c2ccc3c(c2)OCCO3)cc1[N+](=O)[O-],/,-4.3,9,0.1,/,/,0.0
CCOC(=O)c1sc(N2C(=O)C(O)=C(C(=O)c3ccco3)C2c2cccc(Cl)c2)nc1C (stereo unspecified),/,-3.0,3,4.2,/,/,-0.7
O=C(COc1ccc([N+](=O)[O-])cc1)Nc1nc(-c2ccccn2)cs1,4.0,7.6,18,-1.6,0.67,0%,-0.8
O=C(/C=C/c1ccc(S(=O)(=O)N2CCOCC2)cc1)Nc1ccc(F)c(F)c1F,5.8,0.8,2,-0.5,0.7,/,-0.7
COC(=O)C1=C(C)NC(C)=C(C(=O)OC)C1c1ccco1,0.6,-1.0,-4,0.7,0.64,/,0.5
Cc1sc(NC(=O)CSc2nnc(COc3ccccc3)n2C)c(C#N)c1C,1.8,1.3,-3,0.0,0.73,-5%,-0.1
COc1cc(O)c(C(CC(=O)N2CCN(c3ccccc3)CC2)c2ccc3c(c2)OCO3)c(OC)c1 (stereo unspecified),5.9,1.7,-6,1.5,0.66,/,-0.1
CCCN(CC(=O)Nc1ccccc1C)C(=O)c1sc2ccccc2c1Cl,3.0,-4.1,-5,-0.3,0.68,1%,0.3
CCOC(=O)CN(C(=O)CNC(=O)c1cccs1)C(C(=O)NC1CCCCC1)c1cccs1 (stereo unspecified),3.8,4.2,-27,0.3,0.7,/,-1.2
COc1ccc(/C=N/NC(=O)c2cc(-c3ccccc3)nc3ccccc23)cc1O,/,2.4,4,2.4,/,-1%,-0.2
COc1ccc(-c2cn3cccnc3n2)cc1NS(=O)(=O)c1ccccc1,-110,0.3,-28,2.1,0.73,/,-0.2
